KCNQ2 block – KCNQ2 potassium channel inhibitors, primary screen, cell-based, CHO-K1, FluxOR thallium flux, B-score (AID 2156) | B-score at 10 µM | hit rate 1.1% among 310,000 | Potassium voltage-gated channel subfamily KQT member 2 (Rattus norvegicus), O88943 | 20 min; hits give low values; only compounds with negative scores are shown here; some inactives read as strong as hits;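 active = fluorescence ratio B-score at most minus 3 library SDs, with starting brightness B-score within 2 library SDs, cut at about -5.5 in these data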
Target sequence (O88943 whole entry, looked up): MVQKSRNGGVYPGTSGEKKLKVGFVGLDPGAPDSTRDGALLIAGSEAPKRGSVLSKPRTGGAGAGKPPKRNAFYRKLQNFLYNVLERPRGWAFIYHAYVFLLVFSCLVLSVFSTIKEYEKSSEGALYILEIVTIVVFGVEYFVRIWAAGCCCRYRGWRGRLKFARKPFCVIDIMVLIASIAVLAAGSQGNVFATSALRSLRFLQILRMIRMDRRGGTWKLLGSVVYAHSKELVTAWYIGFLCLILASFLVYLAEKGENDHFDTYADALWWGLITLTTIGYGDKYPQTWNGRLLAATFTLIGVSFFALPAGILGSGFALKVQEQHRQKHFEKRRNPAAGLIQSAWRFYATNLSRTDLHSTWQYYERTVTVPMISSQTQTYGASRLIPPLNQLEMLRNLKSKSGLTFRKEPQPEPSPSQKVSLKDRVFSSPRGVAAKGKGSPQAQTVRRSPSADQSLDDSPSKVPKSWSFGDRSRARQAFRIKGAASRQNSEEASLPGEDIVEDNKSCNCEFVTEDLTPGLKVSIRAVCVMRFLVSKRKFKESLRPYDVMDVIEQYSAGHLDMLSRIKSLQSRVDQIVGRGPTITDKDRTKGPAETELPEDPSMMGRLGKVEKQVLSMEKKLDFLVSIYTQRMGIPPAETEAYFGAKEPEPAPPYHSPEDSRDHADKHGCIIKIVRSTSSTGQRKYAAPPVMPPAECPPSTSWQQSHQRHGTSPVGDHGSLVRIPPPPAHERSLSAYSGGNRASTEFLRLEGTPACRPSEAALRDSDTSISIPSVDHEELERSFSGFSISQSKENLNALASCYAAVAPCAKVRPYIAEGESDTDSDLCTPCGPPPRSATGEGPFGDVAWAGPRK
KCNQ2 block baseline – also measured in KCNQ2 block; calls as there; B-score; measured here: initial fluorescence intensity artifact check;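 brightness before thallium and not channel activity; 0 = typical well and far values either way flag optical interference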
Numbers without * were called inactive; i = inactive; & = joins results of further samples. These rows are one share of the data. The share of hits here may be higher or lower than overall.

nr	KCNQ2 block	KCNQ2 block baseline	canonical_smiles
1	i	0.45	Cc1ccccc1NC(=O)CSc1ccc(-c2ccc(-n3cccn3)cc2)nn1
2	i	0.96	COC(=O)Cc1c(C)nc2nc(-c3cccnc3)[nH]n2c1=O
3	i	-0.11	C=CCO/N=C(/C)c1ccc(Oc2cnccn2)cc1
4	i	0.03	O=C(Cn1cccc1)Nc1ccc(F)cc1F
5	i	0.55	CCOc1ccc(S(=O)(=O)N2CCCCC2)cc1NC(=O)C1CSC2(C)CCC(=O)N12 (stereo not given)
6	i	-0.27	O=C(CSc1nnc(-c2cccnc2)o1)Nc1ccc(Cl)cc1
7	i	0.37	COc1ccc(-c2nc(SC(C)C(=O)NCC3CCCO3)n[nH]2)cc1 (stereo not given)
8	i	1.6	O=C(OCC(=O)N1CCN(c2ccccc2)CC1)c1ccccc1NCCO
9	i	-0.5	CCN(Cc1ccccc1)CC(O)COC(c1ccc(OC)cc1)c1ccc(OC)cc1 (stereo not given)
10	-11*	-0.85*	CC(c1ccco1)N(C(=O)COc1ccc(Cl)cc1Cl)c1ccccn1 (stereo not given)
11	i	-1.5	Cc1nc(-c2ccc(NS(=O)(=O)c3ccccc3)cc2)cs1
12	i	2.3	COc1ccc(OC(=O)c2c(C)nn(-c3ccccc3)c2C)cc1
13	i	2.6	CN(C)c1ccc(C(=S)N2CCNCC2)cc1
14	i	0.47	COc1cc([N+](=O)[O-])ccc1NC(=O)CN1CCc2cc(OC)c(OC)cc2C1
15	i	0.42	Cc1cccn2c(=O)c(/C=C(\C#N)C(N)=O)c(Oc3ccccc3)nc12
16	i	-1.6	C#CCN(C(=O)c1ccc(OC2CCN(C(=O)CCOC)CC2)cc1)C1CCCCC1
17	i	1.6&-1.5	Oc1c(C=C2N=c3ccccc3=N2)sc(=S)n1C1CCCCC1
18	i	1.3	Cc1ccc(N2CCN(S(=O)(=O)N3CCCCC3)CC2)cc1Cl
19	i	-0.58	COc1ccc(NC(=O)NS(=O)(=O)c2ccc(C)cc2)c(OC)c1
20	i	-1	COCON1C(=O)CN(C(C)=O)C1c1ccc(Cl)cc1Cl (stereo not given)
21	i	-0.87	CCc1nn2c(NCCCO)cc(C)nc2c1-c1ccc(F)cc1
22	i	-0.02	Cc1nn(C(C)C(=O)NC2CCCCC2)c(=O)c2nn(-c3ccccc3)c(C)c12 (stereo not given)
23	i	-0.44	CC(C)(C)c1csc(NC(=O)CSc2nc3ccccc3c(=O)[nH]2)n1
24	i	-2.3	COc1ccc(CNCCC(c2ccc(F)cc2)c2ccc(OC(C)C)cc2)cc1OC (stereo not given)

By substructure, those above containing fluorine (3)
nr	KCNQ2 block	KCNQ2 block baseline	canonical_smiles
4	i	0.03	O=C(Cn1cccc1)Nc1ccc(F)cc1F
21	i	-0.87	CCc1nn2c(NCCCO)cc(C)nc2c1-c1ccc(F)cc1
24	i	-2.3	COc1ccc(CNCCC(c2ccc(F)cc2)c2ccc(OC(C)C)cc2)cc1OC (stereo not given)

(continued)
nr	KCNQ2 block	KCNQ2 block baseline	canonical_smiles
25	i	0.35	Cc1cc(C)n(C(=O)CNC(=O)/C=C/c2ccccc2)n1
26	i	-0.76	O=C(NC12CC3CC(CC(C3)C1)C2)OCCNC1CCCCC1
27	i	1.2	COC(=O)c1ccccc1NC(=O)c1nc(S(=O)(=O)Cc2ccccc2)ncc1Cl
28	-6.5*	-0.51*	COc1cccc(NC(=O)Cn2cc3c(n2)CCCCC3)c1
29	i	-0.11	COc1ccccc1N1CCN(c2ncnc3sc(C(=O)NCC4CCCO4)c(C)c23)CC1 (stereo not given)
30	i	-1.4	CCc1cc(C(=O)N2CCN(c3ccccc3OC)CC2)sc1C
31	i	0.38	Cc1nn2c(-c3ccccc3)c(-c3ccccc3)nc2[nH]c1=O
32	i	0.77	Cc1ccccc1OCCC(=O)OCC(=O)NC1CCCC1
33	i	0.1	Cc1ccc(NC(=O)CN2CCc3ccccc3C2)cc1C
34	i	-0.83	O=C(N/N=C/c1cc([N+](=O)[O-])ccc1O)NC12CC3CC(CC(C3)C1)C2
35	i	0.02	Fc1ccc(CN2CCCCCCC2)cc1F
36	i	0.33	O=[N+]([O-])c1cccc(S(=O)(=O)NCC2CC3CCC2C3)c1 (stereo not given)
37	i	-0.79	CCOc1cc(CNCc2ccc3c(c2)OCO3)ccc1OC
38	i	-0.04	N#Cc1c(N)nc2c(c1-c1ccc(Br)s1)CCCC2
39	i	-1.7	O=C(O)c1ccc(/C=N/n2c(C3CCCCC3)n[nH]c2=S)cc1
40	i	1.9	CCN(C(=O)CSc1nnc(-c2ccccc2)n1C)C1CCS(=O)(=O)C1 (stereo not given)
41	i	0.35	CC(=O)Nc1ccc(S(=O)(=O)NCCCN2CCOCC2)cc1
42	i	-0.3	COc1cc(OC)c2c(=O)cc(-c3ccccc3)oc2c1
43	i	0.8	COC(=O)c1ccccc1NC(=O)N1CCN(S(C)(=O)=O)CC1
44	i	0.67	COc1ccc(NC(=O)CN2CCCN(S(=O)(=O)c3ccc(F)cc3)CC2)c(OC)c1
45	i	-0.98	CCn1cc(/C=C(/C#N)S(=O)(=O)c2ccccc2)cn1
46	i	1.6	O=C(O)c1ccc(N=Cc2c(O)ccc3ccccc23)cc1
47	i	0.16	COc1ccc(CN2C(=O)c3cccnc3C2=O)cc1S(=O)(=O)NCc1ccco1
48	-5.9*	0.13*	COc1ccc(Cl)cc1NC(=O)CN(C1CCCCC1)S(C)(=O)=O

Filtered by structure: the compounds so far with an aryl thioether with sulfur outside any ring (five)
nr	KCNQ2 block	KCNQ2 block baseline	canonical_smiles
1	i	0.45	Cc1ccccc1NC(=O)CSc1ccc(-c2ccc(-n3cccn3)cc2)nn1
6	i	-0.27	O=C(CSc1nnc(-c2cccnc2)o1)Nc1ccc(Cl)cc1
7	i	0.37	COc1ccc(-c2nc(SC(C)C(=O)NCC3CCCO3)n[nH]2)cc1 (stereo not given)
23	i	-0.44	CC(C)(C)c1csc(NC(=O)CSc2nc3ccccc3c(=O)[nH]2)n1
40	i	1.9	CCN(C(=O)CSc1nnc(-c2ccccc2)n1C)C1CCS(=O)(=O)C1 (stereo not given)

Some of these compounds in order of their number in KCNQ2 block baseline, descending:
nr	KCNQ2 block	KCNQ2 block baseline	canonical_smiles
40	i	1.9	CCN(C(=O)CSc1nnc(-c2ccccc2)n1C)C1CCS(=O)(=O)C1 (stereo not given)
44	i	0.67	COc1ccc(NC(=O)CN2CCCN(S(=O)(=O)c3ccc(F)cc3)CC2)c(OC)c1
41	i	0.35	CC(=O)Nc1ccc(S(=O)(=O)NCCCN2CCOCC2)cc1

(next part)
nr	KCNQ2 block	KCNQ2 block baseline	canonical_smiles
49	i	-0.75	Cc1ccc(NC(=O)CN(C)S(=O)(=O)c2cccs2)cc1C
50	i	1.2	O=C1CC(C(=O)O)S/C(=N\N=C\c2ccc(Br)cc2)N1 (stereo not given)
51	i	-0.46	CC(C)(C)c1cc(NC(=O)c2cccs2)no1
52	i	-0.04	COc1cc(NS(=O)(=O)c2ccc(NC(=S)NC(=O)/C=C/c3ccc(OC)c(OC)c3)cc2)ncn1
53	i	-2.7	COc1ccccc1/C=C1\SC(=O)N(CCC(=O)N2CCCCC2CCO)C1=O (stereo not given)
54	i	-1.3	Cc1ccc2c(c1)C(=O)CC1(CCC(C(C)(C)C)CC1)O2 (stereo not given)
55	i	-2.7	CCCc1cc(C(=O)N/N=C/c2cccn2C)cs1
56	i	2.3	N#Cc1nc(COc2ccccc2F)oc1NCCc1ccccc1
57	i	-1.2	COc1ccccc1N1C(=O)CC(N2CCN(c3ccc([N+](=O)[O-])cc3)CC2)C1=O (stereo not given)
58	i	-0.89	COc1ccc(NS(=O)(=O)c2cc(NC(=O)Cc3cccs3)ccc2C)cc1
59	i	2.8	c1ccc(CSCc2cn3ccccc3n2)cc1
60	i	1.4	O=S(=O)(Nc1ccc(C(F)(F)F)cn1)c1ccccc1
61	i	1.3	CCCCCN1C=CC=C/C1=C\C=C(C#N)C#N
62	i	0.4	O=C(CNC(=O)c1ccc(Cl)cc1)NC(CO)c1ccccc1 (stereo not given)
63	i	2.6	NCCNC(=O)Cn1c(=O)c2c3c(sc2n(Cc2ccccc2)c1=O)CCCC3
64	i	2.3	COC(=O)C1=COC(C)C2CN3CCc4c([nH]c5ccccc45)C3CC12 (stereo not given)
65	i	0.09	COc1ccc(CNC(=O)[C@@H](C)NC(=O)[C@@H]2Cc3ccccc3CN2)cc1
66	i	-2.3	O=C1Nc2ccccc2C1=Nc1ccc(Cl)cc1
67	i	0.04	COC(=O)c1ccc(OC)c(NS(=O)(=O)c2ccc(-n3cnnn3)cc2)c1
68	i	1.1	Clc1ccccc1-c1nc2nc3ccccc3nc2n1-c1ccc2c(c1)OCO2
69	i	0.4	COc1ccc(S(=O)(=O)N2CCN(C(=O)CN3C(=O)NC(C)(c4ccc5ccccc5c4)C3=O)CC2)cc1 (stereo not given)
70	i	0.85	O=C1CC(C(=O)N2CCc3ccccc32)CN1c1ccc(F)cc1 (stereo not given)
71	i	0.23	Nc1nnc(CCCCCc2nnc(N)s2)s1
72	i	0.09	COc1ccc(OC)c(-c2csc(N(C)C(=O)c3ccco3)n2)c1
73	i	0.22	CCOc1ccc(N(CC(=O)NCc2ccc3c(c2)OCO3)C(=O)c2csnn2)cc1
74	i	-0.65	CCCN(CC1CC1)c1nc(N)c(C#N)c(CC#N)c1C#N
75	i	1.4	COc1ccc(OC)c(C(C(=O)NCc2ccco2)N(C(=O)Cn2nnc3ccccc32)C(C)C)c1 (stereo not given)
76	i	-1.8	C(=N\n1cnnc1)/c1cccs1
77	i	1.1	COCCCN1C(=O)C(=O)/C(=C(/O)c2ccc(S(=O)(=O)N3CCOCC3)cc2)C1c1ccc(C(C)C)cc1 (stereo not given)
78	i	-1.3	COc1ccc(C(=O)OCC(=O)Nc2c(C)cccc2C)cc1
79	i	-0.12	COc1ccc(NC(=O)C2CCN(S(=O)(=O)c3cccnc3)CC2)cc1Cl
80	i	-0.34	Cc1cc(C)n2nc(-c3sccc3-n3cccc3)cc2n1
81	i	0.9	COc1ccc(-n2c(-c3ccc(Cl)cc3)c[n+]3c2CCc2ccccc2-3)cc1
82	i	-0.13	O=C(CN1Cc2ccccc2C1=O)Nc1ccc2c(c1)OCCO2
83	i	3.2	CC(=O)N[C@@H]1[C@@H](O)[C@@H]2OC(c3ccccc3)OC[C@H]2O[C@@H]1N=[N+]=[N-] (stereo not given in full)
84	i	-0.54	O=C(NC1CC2CCC(C1)N2Cc1ccccc1)c1ccccc1Cl (stereo not given)
85	-6.4*	-0.52*	Cc1cc(C)c2[nH]c(=O)c(C(c3nnnn3Cc3ccc4c(c3)OCO4)N3CCCC3)cc2c1 (stereo not given)
86	i	0.27	O=C(O)c1cc(=O)[nH]c2ccc(S(=O)(=O)Nc3ccc(F)cc3)cc12
87	i	-0.29	Cc1cccc(C2Nc3ccccc3C(=O)N2c2ccccc2)n1 (stereo not given)
88	-14*	3*	O=C(c1cccs1)c1no[n+]([O-])c1C(=O)c1cccs1
89	i	0.66	Cn1c(C(=O)N2CCN(c3cccc(C(F)(F)F)c3)CC2)cc2sccc21
90	i	-0.51	CCOc1ccc(N2CC(C(=O)NCc3ccco3)CC2=O)cc1 (stereo not given)
91	i	-2	CCCNC(=S)NNC(=O)c1cccs1
92	i	-1.1	COc1cc(OC)c2c(-c3ccccc3)cc(=O)oc2c1C(CCN1CCCC1)c1ccc2c(c1)OCO2 (stereo not given)
93	i	-0.1	Cc1ccc(S(=O)(=O)N2CCC(C(=O)Nc3ccc4c(c3)COC4=O)CC2)cc1
94	i	-1.4	O=C(CN(C(=O)c1csnn1)c1ccccc1Cl)NCCc1ccccc1
95	i	0.8	CCOc1ccccc1NC(=O)N1CCC(c2nc3ccccc3[nH]2)CC1
96	i	-0.61	COc1ccc(N(C(=O)c2snc(C(N)=O)c2N)C(C(=O)NCc2ccccc2)c2ccc(F)cc2)c(OC)c1 (stereo not given)
97	i	-0.47	Cc1onc(C(=O)Nc2ccc(OC(F)(F)F)cc2)c1[N+](=O)[O-]
98	i	-1.7	ClC(CCN1CCN(Cc2ccccc2)CC1)c1ccccc1 (stereo not given)
99	i	1.7	C=CCN1C(=O)/C(=C\C=C2\N(C)c3ccccc3C2(C)C)SC1=S
100	i	1.4	CCn1c(SCC(=O)OC2CCCCC2)nc2ccccc2c1=O
101	i	-1.1	O=c1c2c(nc3n1CCCCC3)-c1ccccc1CC21CCCCC1
102	i	-1.7	Cc1ccn2c(=O)nc(SCC(=O)N3N=C(c4cccs4)CC3c3ccc(F)cc3)nc2c1 (stereo not given)
103	i	0.74	O=C(/C=C/c1ccco1)NC(=S)Nc1ccccc1O
104	i	-1.1	COc1ccc(CCN(C)C(=O)CCNC(=O)c2ccc(Br)cc2)cc1OC
105	i	0.32	CC1CCN(CCNC(=O)C2CCCN(S(=O)(=O)c3cccc4nsnc34)C2)CC1 (stereo not given)
106	i	-0.28	Cc1[nH]nc2c1C(c1ccc3c(c1)OCO3)C(C#N)=C(N)O2 (stereo not given)
107	i	57	CC(C)n1cc(/C=C/c2cc[n+](C)cc2)c2ccccc21
108	i	0.75	CNC(=O)c1ccccc1NC(=O)c1cccc(S(=O)(=O)N2CCC(C)CC2)c1

The list continues:
nr	KCNQ2 block	KCNQ2 block baseline	canonical_smiles
109	i	-0.37	CC(O)CNc1nc2ccccc2n1CC(=O)NCCc1ccc(Cl)cc1 (stereo not given)
110	i	-0.69	Cc1cc(OCc2cc(C(=O)NCc3csc(C(C)C)n3)no2)cc(C)c1Cl
111	i	-0.18	COc1ccc(Nc2cc(C(=O)NCCCOC(C)C)c3ccccc3n2)c(OC)c1
112	i	0.83	c1ccc(-n2nnc(-c3cccnc3)n2)cc1
113	i	0.83	CSc1nc(-c2ccccc2)nc2c1COC(C)(C)C2
114	i	0.06	COC(=O)C1CCCCN1C(=O)CCc1nnc(CCc2c[nH]c3ccccc23)o1 (stereo not given)
115	i	0.25	CC(C)(C)C(=O)Cn1c[n+](N)cn1
116	i	0.01	COc1ccc(C(=O)Nc2nc(-c3ccc([N+](=O)[O-])cc3)c(-c3ccc(OC)cc3)s2)cc1
117	i	0.6	O=C(CN1CCCC1)Nc1ccc(Cl)cc1C(F)(F)F
118	i	-0.38	C=CCN1C(=O)C2C(C(=O)NCc3ccccc3)C3C=CC2(O3)C1C(=O)NC(C)(C)C (stereo not given)
